gsp agonist: agonists of gsp mutant (McCune-Albright syndrome) | gsp mutant cells, cAMP HTRF, 30 min; control for the full effect not named in the record | Potency, µM (titrated, usually from 76.9 µM), for inactives: top-dose activation (cAMP increase), most hits filed as activators | AID 624287 | 340,000 tested, 0.13% active; active = well fitted activation curve with a large enough effect; inconclusive = small, poorly fitted or top-dose-only effect, or another doubt; inactive = no such curve, though single readings can be large or run the other way; cell line not stated here;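 also: phosphodiesterase inhibitor Ro 20-1724 added with compounds to block cAMP breakdown; potency is read from the fitted curve at half-maximal effect; nearly all actives have a fitted effect of over 60% in size; about a fifth of the inactives were tested at one dose only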
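Cells stably selected in G418 were plated at 2000/well, grown 16-24 hr, then given compounds in DMSO with the PDE inhibitor […] (300 uM solution added) for 30 min at 37C; cAMP was read by HTRF.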
Menin MLL FP FL: displaces fluorescein MLL peptide from human menin | Fluorescence polarization, fluorescein-MLL peptide displacement from menin | FP activity change, % at 61.4 µM | 290,000 tested, under 10 active | AID 1766; inconclusive = falling polarisation curve, or a change in total fluorescence; inactive = total fluorescence flat and polarisation flat or rising; no compound was filed as active; the % refers to the polarisation; negative = inhibition;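 also: % of control where 0% means no effect; inhibitors lower the polarisation; unlabelled MLL peptide was the positive control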
TRPML1 inh: human mucolipin-1 channel inhibition. 390,000 tested, 0.02% active. activity change, negative = inhibition, % (no concentration beside the values). TRPML1-inducible cells, Ca2+ dye fluorescence, FDSS; hits give low values; inhibition of EC80 agonist-evoked calcium signal; in the data active means activity change below about -50%; inconclusive means about -30% to -50%; inactive means above about -30%;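 also: stimulus is agonist 54-4 at its EC80 concentration; % is scaled to controls: 0 for no effect and ±100 for the full control effect; compound concentration not given in the record; the text of the record puts the active cut at -80%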
Target sequence (Q9GZU1 whole entry, looked up): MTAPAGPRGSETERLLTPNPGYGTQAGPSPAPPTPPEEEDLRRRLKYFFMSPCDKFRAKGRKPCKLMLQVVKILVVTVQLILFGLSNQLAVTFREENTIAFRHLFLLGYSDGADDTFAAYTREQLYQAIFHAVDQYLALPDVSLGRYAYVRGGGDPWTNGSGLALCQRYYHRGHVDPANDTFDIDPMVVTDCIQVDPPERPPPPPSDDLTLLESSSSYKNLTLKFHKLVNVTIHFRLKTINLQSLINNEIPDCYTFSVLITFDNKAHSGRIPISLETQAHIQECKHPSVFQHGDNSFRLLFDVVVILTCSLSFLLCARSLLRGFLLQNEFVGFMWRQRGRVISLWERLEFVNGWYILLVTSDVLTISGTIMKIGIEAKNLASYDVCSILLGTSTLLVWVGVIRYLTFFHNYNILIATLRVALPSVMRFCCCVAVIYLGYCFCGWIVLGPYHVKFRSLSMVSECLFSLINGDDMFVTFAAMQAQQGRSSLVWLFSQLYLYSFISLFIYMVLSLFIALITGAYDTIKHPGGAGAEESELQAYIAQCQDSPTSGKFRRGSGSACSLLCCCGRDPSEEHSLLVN
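Tet-induced TRPML1-DL cells loaded with Ca8 no-wash calcium dye were read kinetically on FDSS. Compound addition was followed by EC80 agonist 54-4 (4 uM final); inhibition was read over 110 s.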
gsp antag: antagonists of gsp mutant (McCune-Albright syndrome); Potency, µM (titrated, usually from 76.9 µM), for the others: top-dose activity change, negative = inhibition, actives largely listed as inhibitors; 340,000 tested, 0.4% active; AID 624288; gsp-mutant cells, cAMP HTRF, 30 min; control for the full effect not named in the record; active = falling curve of any shape with a large fitted effect; inconclusive = falling curve, mostly with a smaller effect; inactive = flat or rising curve; cell line not stated here;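 also: intracellular cAMP measured with PDE inhibitor Ro 20-1724 present during compound exposure; potency is read from the fitted curve at half-maximal effect; % is scaled to controls: 0 for no effect and ±100 for the full control effect; nearly all actives have a fitted effect of over 65% in size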
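G418-selected cells were plated in DMEM/10% FBS for 16-24 h at 37C, then treated with compounds plus the PDE inhibitor […] (300 uM solution added) for 30 min at 37C. Intracellular cAMP was measured by HTRF after 30 min lysis at room temperature.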
ClpP mod: qHTS Assay for Activators of ClpP; AID 651965, 2013; 340,000 tested, 1.9% active; ATP-dependent Clp protease proteolytic subunit (Bacillus subtilis (strain 168)), P80244; purified B. subtilis ClpP, FRET peptide cleavage, 20 min; Potency, µM (doses to about 57.5 µM), without a hit: at the highest dose activity change, negative = active; active = well fitted falling curve with a large enough effect; inconclusive = small, poorly fitted or top-dose-only effect; inactive = no such curve, though single readings can be large or run the other way; also: potency is read from the fitted curve at half-maximal effect; the source files actives as falling curves though it sought activators and does not explain the sign; nearly all actives have a fitted effect of over 65% in size; many hits overshoot -100%
Target sequence (P80244 whole entry, looked up): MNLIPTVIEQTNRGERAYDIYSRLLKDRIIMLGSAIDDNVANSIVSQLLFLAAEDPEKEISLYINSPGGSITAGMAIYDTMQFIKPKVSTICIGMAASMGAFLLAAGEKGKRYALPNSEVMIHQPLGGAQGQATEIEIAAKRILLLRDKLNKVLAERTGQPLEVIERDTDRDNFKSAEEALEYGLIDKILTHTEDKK
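Buffer: 100 mM Tris/HCl pH8, 100 mM KCl, 0.05% low protease BSA, 2.5% glycerol, 0.01% Tween-20. ClpP 10 microg/mL final; 20 min RT; delta FRET normalized to ADEP and DMSO controls.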
TRPML1 agonist: human mucolipin-1 channel agonism; TRPML1-expressing cells, Ca2+ dye fluorescence, FDSS; host cell line not named in the record; reference of the full effect not given here; activation, % (concentration not given with the values); 410,000 tested, 0.12% active; in the data active = activation above about 50%; inconclusive = about 30% to 50%; inactive = below about 30%; also: 0% is about no effect; the text of the record puts the active cut at 80%
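Tetracycline-induced TRPML1-DL cells are seeded and incubated overnight before loading with a no-wash Ca2+ dye and quencher. Agonist activity is taken from the 110 s fluorescence read following compound pin-transfer on an FDSS, before EC80 54-4 challenge.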
* hit, by the source's call; ? = inconclusive; · = not tested or not shown; & = joins results of further samples; [ ] = remark or other dose.

item	structure	gsp agonist	Menin MLL FP FL	TRPML1 inh	gsp antag	ClpP mod	TRPML1 agonist
1	O=C(CSc1nc2ccccc2o1)NC1CCS(=O)(=O)C1 (stereo unspecified)	-87%[inhibitor]	·	3	11%	0.7%	0.9
2	Cc1cc(=O)oc2cc(OCC(=O)NC3(C#N)CCCCC3)ccc12	12%	·	7	·	3.8%	0.3
3	CCOC(=O)CC1(NC(=O)C2CCC(=O)N(CCc3ccccc3)C2)CCCCC1 (stereo unspecified)	12%	-1.7	7	-1%	1.2%	-0.6
4	O=C(CC(C(=O)O)c1ccccc1)Nc1ccccc1 (stereo unspecified)	0%	1.9	5	4%	-1.6%	0.2
5	CCN1C(=O)[C@H]2[C@@H](c3ccc(C)cc3)N3C(=O)N(c4ccc(C(F)(F)F)cc4)C(=O)[C@@]3(Cc3ccccc3)[C@H]2C1=O	·	-0.2	-4	0%	0.6%	0.9
6	CN1CCN(S(=O)(=O)c2cccc(C(=O)Nc3ccccc3N3CCCC3)c2)CC1	-19%[15.4 µM]	·	5	-1%	-0.9%	-0.2
7	Cc1cc(=O)[nH]c2nnnn12	-33%[inhibitor]	5.7	·	3%	3.5%	·
8	COc1ccc(N=NC2=C(O)CC(C)(C)CC2=O)c(OC)c1	-10%	?	21	8%	0.6%	-0.2
9	COCCCNC1=C(C#N)C(=O)NC(c2cccc([N+](=O)[O-])c2)S1 (stereo unspecified)	-6%	·	-14	·	-2.0%	-0.2
10	COC(=O)[C@H]1C2CCC(C(=O)OC)(CC2)[C@H]1C(=O)OC	-32%	-0.5	-7	13%	-2.5%	0.4
11	O=C(O)c1ccccc1C(=O)Nc1ccc(-n2ccc(C(F)(F)F)n2)cc1	17%	0.2	12	1%	·	4.8
12	CC(=O)Nc1sc(C)c(C)c1C(=O)OCC(=O)N(C)C1CCS(=O)(=O)C1 (stereo unspecified)	-2%[15.4 µM]	5.8	14	5%	35µM*	0.6
13	Cc1cc([N+](=O)[O-])nn1CC(=O)N(C)Cc1ccccc1	1%[15.4 µM]	-0.7	-7	-4%	28%	0.9
14	CCN(c1ccccc1)S(=O)(=O)c1ccc(Cl)c(NC(=O)CNC(C)c2ccccc2)c1 (stereo unspecified)	7%[15.4 µM]	·	14	?	0.9%	3.5
15	COc1ccc(Cl)cc1NC(=O)c1sc2nc3n(c(=O)c2c1C)CCC3	·	·	1	·	-5.5%	-0.4
16	O=C(c1cccc(Br)c1)N1CCN(c2ccccn2)CC1	0%	·	16	4%	-7.5%	2.2
17	Cc1c(-c2csc(N)n2)cnn1C	5%[15.4 µM]	-14	15	5%	·	1.0
18	Cc1cc(-c2ccc(C)c(S(=O)(=O)N3CCN(c4ccc([N+](=O)[O-])cc4)CC3)c2)on1	14%	·	31	1%	·	1.9
19	CSc1nsc(/C=C/Nc2ccc(F)cc2F)c1C#N	0%[15.4 µM]	?	-1	-12%	·	2.5
20	O=c1c[n+]([O-])c2ccccc2n1OCc1ccccn1	-7%	17	-5	3%	-5.5%	1.8

Next structures.
item	structure	gsp agonist	Menin MLL FP FL	TRPML1 inh	gsp antag	ClpP mod	TRPML1 agonist
21	CN(C)CCCN(C(=O)C1=COCCO1)c1nc2ccc(Br)cc2s1	?	-0.4	6	15%	-1.0%	-0.4
22	Cc1ccc(CSC2=Nc3ccccc3C3=NC(CCC(=O)NCc4cccs4)C(=O)N23)cc1 (stereo unspecified)	·	·	-22	·	1.4%	-0.2
23	COC(=O)c1sc(NC(=O)CSc2nnnn2C)nc1C	0%	3.8	8	6%	·	-0.2
24	CCCc1nn(C)c2c(=O)[nH]c(-c3cc(S(=O)(=O)N4CCN(C)CC4)ccc3OCC)nc12	·	-3.6&-6.1&5.2	-8	-8%	1.6%	-0.4
25	Cn1c(=O)c2c(-c3ccc(Cl)cc3)ccnc2n(C)c1=O	·	·	5	·	-15%	-0.4
26	O=C(Cc1ccc(Cl)cc1)NNC1CC(=O)N(c2ccc3ccccc3c2)C1=O (stereo unspecified)	-21%	5.0	·	-2%	-3.5%	·
27	NS(=O)(=O)c1ccc(CCNS(=O)(=O)c2ccc(Cl)s2)cc1	-42%[inhibitor]	·	8	2%	2.1%	-1.2
28	CCOC(=O)COc1coc(CN2CCN(c3ccccc3)CC2)cc1=O	?	·	-3	0%	-1.6%	-0.8
29	Cc1occc1C(=O)NNC(=O)Nc1ccc([N+](=O)[O-])cc1	-30%[inhibitor]	-2.4	19	4%	-0.6%	1.1
30	Cc1nnc(NC(=O)C2CCCC2)s1	11%	·	14	5%	0.3%	-0.1
31	COc1ccc(C(CNC(=O)c2cc(=O)[nH]c3ccccc23)N2CCCC2)cc1 (stereo unspecified)	-2%	4.3	-4	13%	-15%	-0.4
32	CCOC(=O)C1Cc2ccccc2C(=O)O1 (stereo unspecified)	-20%	3.2	-23	-8%	0.4%	0.2
33	CSc1nnc2c(n1)OC=Nc1ccccc1-2	17%	0.0	8	-2%	1.3%	-0.9
34	COc1ccc(Cn2ccc3nc(C)c(C(=O)N4CCN(c5ccccc5OC)CC4)cc3c2=O)cc1	·	·	7	·	-18%	0.8
35	O=C(COC(=O)c1cccs1)Nc1ccc(S(=O)(=O)N2CCOCC2)cc1	3%	2.3	-6	9%	1.3%	-0.4
36	COc1ccc(C(=O)N/C(=C\c2cn(C)c3ccccc23)C(=O)NCCCn2ccnc2)cc1OC	0%	·	-9	2%	·	-0.1
37	Cc1ccc2c(c1)c1c(n2CC2COC(C)(C)O2)C(=O)CCC1 (stereo unspecified)	26%	0.1	-3	-24%	?	0.4
38	Cc1oc2ncn(CC(C)C)c(=O)c2c1C(=O)N(Cc1ccccc1)C(C)C	·	·	-2	·	3.1%	-1.1
39	CCN(CC)S(=O)(=O)c1ccc(NC(=O)c2cccc3c2C(=O)N(CCOC)C3)cc1	-6%	4.5	1	25%	3.7%	0.0
40	COc1ccc(OC)c(NC(=O)CSC2=Nc3ccccc3C3=NC(CCC(=O)NCc4ccccc4)C(=O)N23)c1 (stereo unspecified)	·	·	9	·	-4.8%	0.6

Next part
item	structure	gsp agonist	Menin MLL FP FL	TRPML1 inh	gsp antag	ClpP mod	TRPML1 agonist
41	Cc1ccc(C)c(NC(=O)Nc2ccc3c(c2)OCO3)c1	20%	·	4	7%	1.1%	-0.5
42	CC(=O)C1C(c2ccc(F)cc2)c2c(noc2C)CC1(C)O (stereo unspecified)	0%[15.4 µM]	3.1	-10	15%	·	0.7
43	Cc1ccc(C)c(S(=O)(=O)Nc2ccc(C(=O)N3CC(C)OC(C)C3)cc2)c1 (stereo unspecified)	-2%	·	5	-8%	-0.8%	1.7
44	CCCc1ccc2oc(C(=O)N(C)Cc3nccs3)c(C)c2c1	18%	·	-6	13%	1.3%	0.5
45	Cc1ccc(C(=O)NCCN2C3=NC[C@@H](Cc4ccccc4)N3C[C@H]2Cc2ccc(O)cc2)cc1Br	27%	5.1	0	7%	-0.6%	-0.2
46	CCN(CC)C(=O)C1=C(C)Nc2nc3ccccc3n2C1c1ccc(Br)cc1 (stereo unspecified)	·	·	-2	·	-22%	-0.5
47	CCOC(=O)C1(S(=O)(=O)c2ccccc2)CCN(Cc2ccccc2)CC1	18%	1.6	31	0%	1.2%	-0.4
48	CCc1nc(NCCC(C)C)c(C#N)c2c1CCCC2	1%	-3.0	4	7%	16µM*	8.2
49	CCOCCCNC(=O)CSCc1nc(-c2ccc(SC)cc2)oc1C	?	-2.3	-8	-2%	3.3%	1.5
50	CCC(=O)Nc1nc(C)cc(SCC(=O)OC)n1	-28%	3.1	-16	13%	?	-0.5
51	CC1=NNC(=O)/C1=C\c1cn(-c2ccccc2)nc1-c1ccc(F)cc1	-9%[15.4 µM]	0.7	-19	-2%	-1.4%	-0.7
52	O=C(CC1C(=O)NCCN1Cc1ccccc1)NC1CCCCCC1 (stereo unspecified)	-28%	0.6	-1	-3%	-9.1%	-0.3
53	Cn1nc(C(F)(F)F)c(/C=N/OC(=O)c2ccccc2)c1Cl	-27%	0.9	5	-4%	-0.5%	0.6
54	CC1=C(C(=O)OC2CCCCC2)C(c2ccc(F)cc2)NC(=O)N1 (stereo unspecified)	10%	1.7	39	-8%	·	2.3
55	O=C(c1ccccc1)N(Cc1ccco1)C1CCS(=O)(=O)C1 (stereo unspecified)	-5%	-0.4	-4	12%	-2.2%	-0.1
56	Cn1ncc2c(N3CCN(c4ccccc4Cl)CC3)ncnc21	·	·	-3	·	-1.9%	2.2
57	O=S(=O)(c1ccc(F)cc1)N1CCN(c2ccccn2)CC1	3%[15.4 µM]	-6.3	15	·	·	1.0
58	CNNC(=S)Nc1cccc(SC)c1	1%[15.4 µM]	3.3	10	-18%	0.5%	-0.4
59	CC(Oc1ccc(F)cc1)C(=O)N(CCC1=CCCCC1)c1c(N)n(Cc2ccccc2)c(=O)[nH]c1=O (stereo unspecified)	21%	·	0	-19%	1.2%	0.5
60	CCC(C(=O)Nc1sc(C(N)=O)c(C)c1C(=O)OC)c1ccccc1 (stereo unspecified)	11%[15.4 µM]	3.7	-3	-52%	·	0.6

Further entries follow.
item	structure	gsp agonist	Menin MLL FP FL	TRPML1 inh	gsp antag	ClpP mod	TRPML1 agonist
61	CCCCN(c1ccccc1)c1ncnc2c1cnn2-c1cccc(C)c1	·	·	-12	·	-6.5%	-0.3
62	C=CCn1c(SCC(=O)Nc2nc3ccccc3s2)nnc1-c1ccccc1O	7%	1.0	56	-18%	-12%	0.7
63	COc1ccc(CC/C(C)=N\NC(N)=O)cc1	0%	2.7	-21	6%	0.9%	0.0
64	Cc1sc2ncnc(N3CCOCC3)c2c1C	28%	2.1	35	-10%	0.0%	0.2
65	Cc1nc(-n2[nH]c3c(c2=O)CCCC3)[nH]c(=O)c1Cc1ccccc1	2%	?	-8	11%	-3.5%	12
66	CN(C)S(=O)(=O)N1CCN(S(=O)(=O)c2ccc3ccccc3c2)CC1	10%	0.0	2	7%	0.7%	-0.5
67	CS(=O)(=O)c1ccc(Cl)c(NC(=O)c2ccc(-n3cncn3)c([N+](=O)[O-])c2)c1	?	·	34	·	-2.2%	-0.1
68	Cc1ccc(/C=N/n2c(-c3cccs3)n[nH]c2=S)cc1	-28%	6.7	11	-10%	-2.7%	2.2
69	CCCC12CN3CC(CCC)(CN(C1)C3C(O)C(O)C(O)CO)C2=O (stereo unspecified)	5%	-0.5	-11	13%	1.1%	-0.2
70	C=C[C@H]1[C@H](O[C@@H]2O[C@H](CO)[C@@H](O)[C@H](O)[C@H]2O)OC=C2C(=O)OCC[C@]21O	·	·	-3	5%	0.5%	-0.6

Sorted by the number under TRPML1 inh (ascending): 3 of the compounds above.
entry	compound	TRPML1 inh
50	CCC(=O)Nc1nc(C)cc(SCC(=O)OC)n1	-16
40	COc1ccc(OC)c(NC(=O)CSC2=Nc3ccccc3C3=NC(CCC(=O)NCc4ccccc4)C(=O)N23)c1 (stereo unspecified)	9
67	CS(=O)(=O)c1ccc(Cl)c(NC(=O)c2ccc(-n3cncn3)c([N+](=O)[O-])c2)c1	34
